Env fusion inh: blocks HIV Env-driven cell-cell fusion; HeLa-JRFL Env/CEM21 cell fusion, luciferase; inhibition, % at 12.3 µM; 1.1% of 360,000 active; AID 651610;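 active = mean replicate inhibition score of at least 50 and every replicate individually at or above 50; inconclusive = only one of the two criteria met; inactive = mean below 50 and not all replicates reaching 50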;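 note: 0% = plate neutral controls and 100% = maraviroc near 300 nM; one replicate is shown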
CSC inhib: blocks cancer stem cells | cancer stem cell-like cells viability, luminescence | inhibition, % at 7.5 µM | 1.1% of 300,000 active;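 active = mean at 75% or more and at least half the replicates too; inconclusive = mean and replicates disagree; tested in HMLE shEcad cells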;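 note: 0% = median of negative and 100% = median of positive control wells; the first replicate is given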
PABP polyA inh: blocks human PABP binding to poly(A) RNA. P11940. fluorescence polarization. inhibition, % at 35 µM. 1% of 290,000 active. AID 2014;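 active = 50% or more with normal probe brightness, or confirmed in later tests; inconclusive = above 50% with abnormal brightness, or retests that disagree; inactive = below 50% or failed in later tests; about a fifth of its hits are not listed in these tables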;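 note: calls also rest on retests at 20 µM and on dose response follow-up; controls were probe without protein and protein plus probe with vehicle; some compounds called inactive have numbers as strong as hits; many hits fall short of the cut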
Target sequence (P11940 whole entry, looked up): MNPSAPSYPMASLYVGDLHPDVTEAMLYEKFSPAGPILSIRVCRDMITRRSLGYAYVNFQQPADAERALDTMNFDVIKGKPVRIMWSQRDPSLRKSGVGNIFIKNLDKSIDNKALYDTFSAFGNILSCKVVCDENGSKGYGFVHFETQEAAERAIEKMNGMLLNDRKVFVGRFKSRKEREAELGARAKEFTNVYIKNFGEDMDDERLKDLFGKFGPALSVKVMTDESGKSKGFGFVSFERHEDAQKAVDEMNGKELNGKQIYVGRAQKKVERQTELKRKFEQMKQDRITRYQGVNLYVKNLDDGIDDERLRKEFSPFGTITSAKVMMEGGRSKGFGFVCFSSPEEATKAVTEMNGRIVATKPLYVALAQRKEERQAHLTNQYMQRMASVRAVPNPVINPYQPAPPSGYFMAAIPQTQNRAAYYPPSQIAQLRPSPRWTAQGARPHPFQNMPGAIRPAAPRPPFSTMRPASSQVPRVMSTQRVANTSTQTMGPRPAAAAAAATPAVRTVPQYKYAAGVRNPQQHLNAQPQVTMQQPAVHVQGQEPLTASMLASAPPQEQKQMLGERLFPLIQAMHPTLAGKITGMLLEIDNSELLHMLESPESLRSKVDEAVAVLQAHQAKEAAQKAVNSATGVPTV
Rce1 inh: inhibitors of yeast Ras-converting enzyme; Q03530; yeast membranes, quenched prenylated peptide cleavage fluorescence; calls only; 0.27% of 290,000 active;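 active = fall in fluorescence gain of 50% or more versus controls, with final raw signal at or below 3038400; inconclusive = same 50% fall but final raw signal above 3038400; inactive = fall in fluorescence gain under 50%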;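 note: plate controls were neutral control wells for no effect and wells lacking membranes for full effect; tested at 10 µM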
Target sequence (Q03530 whole entry, looked up): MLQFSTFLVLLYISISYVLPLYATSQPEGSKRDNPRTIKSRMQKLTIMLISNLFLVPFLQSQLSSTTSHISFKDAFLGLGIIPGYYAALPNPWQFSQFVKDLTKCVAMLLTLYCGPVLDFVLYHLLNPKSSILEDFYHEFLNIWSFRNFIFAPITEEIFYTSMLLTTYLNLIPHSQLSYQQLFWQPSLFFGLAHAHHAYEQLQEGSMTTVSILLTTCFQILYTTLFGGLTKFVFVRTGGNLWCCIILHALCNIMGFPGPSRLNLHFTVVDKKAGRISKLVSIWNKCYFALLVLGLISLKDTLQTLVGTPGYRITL
eIF4H FP inh: inhibitors of RNA binding by human eIF4H. Q15056. eIF4H fluorescence polarization binding assay. inhibition, % at 35 µM. 0.94% of 290,000 active;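 active = 50% or more with normal probe brightness, or confirmed in later tests; inconclusive = above 50% with abnormal brightness, or retests that disagree; inactive = below 50% or failed in later tests; about a fifth of its hits are not listed in these tables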;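 note: calls also rest on retests at 20 µM and on dose response follow-up; 0% = protein and probe with vehicle and 100% = probe without protein; strong numbers were not always called active; many hits fall short of the cut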
MT1-MMP act inh: inhibitors of human MT1-MMP activation. HT1080 RFP-PRO-GFP cells, GFP/RFP ratio fluorescence, overnight; percent of plate control window, DMSO zero. GFP/RFP ratio change, % at 20 µM. 0.061% of 360,000 active. P50281. AID 651647;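 active = GFP/RFP ratio change of at least 30% with cell ATP level not reduced by more than half and red fluorescence within 50% of control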; note: strong numbers were not always called active
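Assay system: HT1080 RFP-PRO-GFP cells | Dosing: 20 µM single dose, 1% DMSO | Incubation: Cells overnight before dosing, compound overnight, 37 °C, 5% CO2 | Evaluation: GFP/RFP fluorescence ratio | Control set: DMSO-only wells and HT1080 RFP-L50D-GFP cell wells as references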
UUG fidelity: alters start codon recognition fidelity in yeast; 0.13% of 350,000 active; S. cerevisiae UUG-firefly luciferase reporter, luminescence/redox ratio; activity score, % at 18.7 µM;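 active = replicate mean at a twofold rise or more, about +100% in these data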;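 note: firefly luciferase made from a UUG start codon reports start codon fidelity; reporter light over untreated wells divided by growth signal over untreated wells; some hits fall short of that in this replicate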
PABP polyA inh retest: second read-out of PABP polyA inh, no call of its own (marks repeat the call); inhibition, %; compound at 20 µM; confirmation repeats;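 mean of two retest wells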
MT1-MMP act inh RFP: recorded beside MT1-MMP act inh, whose call it bears; RFP signal change, %; measured here: RFP expression control read;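 0 = vehicle wells; hits needed this value within 50% of zero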
Numbers without * were called inactive; i = inactive; ? = inconclusive; nt = not tested or not shown. This is a subset. The share of hits here may be higher or lower than overall.

SMILES	Env fusion inh	CSC inhib	PABP polyA inh	Rce1 inh	eIF4H FP inh	MT1-MMP act inh	MT1-MMP act inh RFP	UUG fidelity	others
Cc1ccc2c(c1)c1c(n2CC(O)CN2C(=O)CNC2=O)C(=O)CCC1 (stereo unspecified)	-4	-16	-7	i	-4	1	7	33
Cc1ccc(SCC(=O)Nc2ccc(S(N)(=O)=O)cc2)cc1	-4	-7	-8	i	6	2	9	nt
CCc1ccc(OC(C)C(=O)Nc2ccc(S(=O)(=O)Nc3nccs3)cc2)cc1 (stereo unspecified)	24	nt	-7	i	-4	-2	-1	-13
CCCn1nnnc1SCC(=O)NNC(=O)c1ccco1	-14	13	9	i	-11	0	6	nt
COCc1ccc(C(=O)N2CCC(CCC(=O)Nc3cccc(C)c3)CC2)s1	20	-2	-5	i	-14	0	-1	1
O=C(O)[C@@H](O)c1ccccc1	14	nt	6	i	1	1	4	-12
COc1ccc(NC(=O)CN2CCN(CC#N)CC2)cc1	-24	-19	-1	i	-7	-1	4	-1
CC(C)C[C@@]12C(=O)N(c3cccc(Cl)c3)C(=O)N1[C@H](c1ccc(Br)cc1)[C@@H]1C(=O)N(C(C)(C)C)C(=O)[C@@H]12	91*	-1	nt	nt	nt	-10	-10	-7
O=C(COc1ccc(Cl)cc1)NC1CCSC1=O (stereo unspecified)	nt	-18	5	nt	0	6	16	-5
COCCNC(=O)CS(=O)Cc1nc(-c2ccc(OC)cc2)oc1C (stereo unspecified)	-6	-13	-5	i	-10	5	7	8
CCc1nnc(NC(=O)c2oc3ccccc3c2COC(C)C)s1	13	3	nt	nt	nt	0	-12	-2
COc1ccc(Cl)cc1NC(=O)CSc1nc2[nH]ncc2c(=O)[nH]1	7	nt	nt	nt	nt	-1	7	109*
CN(CC(=O)NC(=O)NCc1ccccc1)Cc1cccc(Cl)c1Cl	12	11	-16	i	-8	2	-6	4
COc1ccc(NC(=O)CSCC(=O)NCCc2ccccn2)cc1	-7	10	7	i	-1	4	2	nt
O=C(O)CC1(CC(=O)Nc2ccc3c(c2)C(=O)OC3)CCCCC1	-9	-7	6	i	-3	8	3	16
COc1ccc(CNC(=O)c2ccc(CS(=O)(=O)c3ccccc3C)o2)cc1	-9	-13	8	i	-1	0	-3	3
CCOc1ccc(N(CC(=O)Nc2c(C)n(C)n(-c3ccccc3)c2=O)S(=O)(=O)c2ccc(F)cc2)cc1	-22	-2	0	i	-1	-1	-2	-12
COC(=O)Cn1ncc2c(C)n(Cc3ccccc3)c(C)c2c1=O	-6	-2	7	i	6	4	-4	-5
CCOCCCNC(=O)c1c[nH]c2cc(C)ccc2c1=O	-67	-2	-7	i	9	2	-4	nt
CCCS(=O)(=O)NC(=O)C1(C)CCCN(C(=O)c2ccc3snnc3c2)C1 (stereo unspecified)	-6	nt	nt	nt	nt	2	8	-16
COc1cccc(NC(=O)COC(=O)c2ccccc2C(=O)N2CCN(c3ccccc3)CC2)c1	4	5	-2	i	14	-23	-22	nt
COc1ccc(-c2ccc(C(c3c(C)[nH][nH]c3=O)c3c(C)[nH][nH]c3=O)o2)c([N+](=O)[O-])c1	-35	nt	-5	nt	4	0	1	nt
Cc1cc(N2CCN(Cc3ccc4c(c3)OCO4)CC2)n2ncnc2n1	-13	-4	0	i	0	-2	2	-13
Cc1ccc2c(c1)-c1c(cnn1CC(=O)O)CO2	nt	3	-3	i	-15	2	1	-22
CCn1cc(C(=O)O)c(=O)c2cc(F)c(N3CCN(C(=S)NC(=O)c4ccccc4)CC3)cc21	4	0	-5	i	-1	1	-3	nt
CC(=O)Oc1cccc(-c2nc3ccccc3c(=O)o2)c1	-18	-11	13	i	-10	8	9	nt
CCc1nc2ccc(C(=O)Nc3cccc(OC)c3)cn2c1N(CC)CCOC	20	nt	nt	nt	nt	-5	-7	-13
O=C(NC1CCNCC1)C1CC1	-11	-8	-6	i	-7	3	5	nt
OCCSc1nc(-c2cccnc2)nc2ccccc12	i	6	2	i	-12	-6	-1	-26
Cc1ccc(S(=O)(=O)NNC2=NCCCCC2)cc1	-9	1	4	i	-2	5	1	-16
CN(C)S(=O)(=O)c1ccc(C(=O)OCC(=O)N2CC3(C)CC2CC(C)(C)C3)cc1 (stereo unspecified)	45	2	nt	nt	nt	-1	0	9
Cc1nc(CN2CCN(C(=O)c3ccc(Br)cc3)CC2)cs1	nt	nt	26	i	-14	2	7	-17
Cc1ccccc1NC(=O)NCc1ccc2c(c1)OCO2	-36	-15	4	nt	-9	1	3	nt
NC(=O)[C@@H]1CCCNc2c(I)cc([N+](=O)[O-])cc2C(=O)N[C@@H](CO)C(=O)NCC(=O)N1	-101	2	-4	nt	4	nt	nt	nt
O=C(COC(=O)/C=C/c1ccc(F)cc1)Nc1ccc(Cl)cn1	8	-13	-10	i	5	-1	3	-6
COc1ccc(CCN(C)C(=O)COc2cccc(-n3cnnn3)c2)cc1OC	-17	4	nt	nt	nt	2	8	-15
COc1ccc(CNC(=O)Nc2nc(C(N)Cc3ccc(Cl)cc3)cs2)cc1 (stereo unspecified)	13	nt	nt	nt	nt	-11	-10	-14
O=S(=O)(NCc1cn2ccsc2n1)c1ccc(Oc2ccccc2)cc1	nt	0	-4	i	-7	-9	-24	2
Cc1ccc2[nH]c3c(c2c1)CCCC3=O	nt	-7	7	i	2	-4	0	21
CCc1ccc(NC(=O)c2cccc(C(=O)Nc3ccc(CC)cc3)n2)cc1	-7	-3	8	i	1	2	2	-8

2 neighbouring compounds already listed, for reference:
SMILES	Env fusion inh	CSC inhib	PABP polyA inh	Rce1 inh	eIF4H FP inh	MT1-MMP act inh	MT1-MMP act inh RFP	UUG fidelity	others
Cc1ccc2[nH]c3c(c2c1)CCCC3=O	nt	-7	7	i	2	-4	0	21
CCc1ccc(NC(=O)c2cccc(C(=O)Nc3ccc(CC)cc3)n2)cc1	-7	-3	8	i	1	2	2	-8

The list continues:
SMILES	Env fusion inh	CSC inhib	PABP polyA inh	Rce1 inh	eIF4H FP inh	MT1-MMP act inh	MT1-MMP act inh RFP	UUG fidelity	others
C/[N+]([O-])=C\c1ccc([N+](=O)[O-])o1	nt	1	2	i	46	1	2	-8
Cc1c(C(=O)Nc2c(C)n(C)n(-c3ccccc3)c2=O)oc2ccccc12	12	-19	-1	i	3	-5	3	0
CSc1ccc(/C=C(/NC(=O)c2ccccc2)C(=O)N2CCN(C)CC2)cc1	10	-10	-8	i	-8	1	3	nt
C[C@H](NC(=O)C1CC(=O)N(c2ccc3c(c2)OCO3)C1)C(=O)NC1CCCC1 (stereo partly specified)	-6	3	2	i	-4	1	5	-16
Cc1sc(NC(=O)c2cccc([N+](=O)[O-])c2)c(C(N)=O)c1-c1ccc(C(C)(C)C)cc1	-25	-7	-4	i	-1	-5	-4	-12
CCOc1cc(C(=S)N2CCCCC2)ccc1OS(=O)(=O)c1ccc(Cl)cc1	?	2	-1	i	0	-5	-11	-19
CCn1ncc(C(=O)Nc2ccc(F)cc2)c1C	-15	0	nt	i	nt	0	4	nt
O=C(Cn1cnc2ccccc21)c1ccc(Br)cc1	-14	14	-15	i	-16	-3	0	-14
CC1(C)CC(=O)C/C(=N\NC(=O)C2C3CCCCC32)C1 (stereo unspecified)	-20	-8	4	nt	-8	-1	-1	nt
Cc1cccc2c1NC(C)CC2C (stereo unspecified)	nt	24	3	nt	-12	19	10	-15
COc1ccc(C2CC(c3cccs3)=NN2C(=O)CSc2nc3c(cnn3-c3ccccc3)c(=O)[nH]2)cc1 (stereo unspecified)	nt	70	5	i	-11	1	4	-13
COc1cc(C(=S)N2CCOCC2)ccc1OC(=O)c1ccccc1	7	-5	4	i	-12	0	4	-16
CCOC(=O)c1cc(C#N)c(=S)[nH]c1C	-18	3	-18	i	1	-4	7	nt
COc1cc(NC(=O)C(C)(C)C)c(C(=O)OCC(=O)Nc2cc(C)on2)cc1OC	-12	nt	nt	nt	nt	-5	0	-14
CCOC(=O)CNc1ccc2c(c1)OCO2	-16	0	105*	i	?	-77	5	-25	PABP polyA inh retest=66*
COc1cccc(N2CCN(C(=O)c3cccc(NC4=NC5CS(=O)(=O)CC5S4)c3)CC2)c1 (stereo unspecified)	-18	0	4	i	-9	0	4	-2
CC(C)(C)OC(=O)N1CCC(CC2CC(c3ccccc3)=NO2)(C(=O)NCc2ccccc2)CC1 (stereo unspecified)	-21	25	nt	nt	nt	-1	-3	-16
CCCn1c(SCC(=O)c2ccc(OC)c(OC)c2)nc2c1c(=O)n(C)c(=O)n2C	nt	-16	4	i	1	5	3	nt
Cc1onc(-c2ccccc2)c1C(=O)OCC(=O)N(C)c1ccccc1	4	-12	nt	nt	nt	1	-1	-2
Cc1csc(NC(=O)Cc2ccccc2Cl)n1	-28	6	5	i	-15	-2	1	-11
COCc1nnc(NC(=O)c2ccc(Cl)cc2[N+](=O)[O-])s1	-3	1	27	i	-2	3	6	nt
Cc1ccc(-c2nc(C3CCN(S(=O)(=O)c4ccc(C(F)(F)F)cc4)CC3)no2)cc1	nt	9	-9	i	-1	1	1	-16
COc1ccccc1C=NNC(=O)c1ccccc1OCCOc1ccccc1	9	12	nt	nt	nt	-1	-5	-30
CCN1C(=O)S/C(=C/c2ccsc2)C1=O	i	3	-14	i	-8	-7	-1	-17
N#CCCn1cc(/C=N/NC(N)=S)c(-c2ccc(Br)cc2)n1	6	-2	10	i	5	-38	-22	nt
C/C(CC(=O)Nc1ccccn1)=N\NC(=O)c1ccc([N+](=O)[O-])cc1Cl	5	-13	3	i	-9	3	4	-13
CCN(C[C@H]1N[C@@](Cc2ccccc2)(C(=O)OC)[C@H]2C(=O)N(Cc3ccccc3)C(=O)[C@@H]12)C(=O)Nc1ccc(F)cc1	16	nt	nt	nt	nt	3	-1	-14
COc1ccccc1OCCn1cc(/C=C(\C#N)C(=O)NCc2cccs2)c2ccccc21	7	-5	-6	i	-10	-1	0	-16
COC(=O)c1ccccc1NC(=O)Cn1cnc2c(cnn2-c2ccccc2)c1=O	nt	3	-13	i	7	-5	-5	-21
O=C(NC(=S)Nc1cccc(O)c1)C12CC3CC(CC(C3)C1)C2	-5	nt	nt	nt	nt	2	-9	-22
COc1ccc(C2=CC(=O)C[C@H](c3ccc(OC)c(OC)c3)C2)cc1	11	-4	nt	nt	nt	-1	-17	-15
CCCN1C(=O)c2cc(C(=O)Nc3ccccc3CC)ccc2C1O (stereo unspecified)	-28	-13	2	i	1	-3	0	-15
CCOC(=O)N1CCN(C(=O)CSCC(=O)Nc2nc(-c3ccc(-c4ccccc4)cc3)cs2)CC1	-56	33	6	i	-1	7	-31	-13
Cc1ccccc1CNS(=O)(=O)c1ccc2c(c1)OCCO2	nt	nt	-2	i	6	0	-6	-10
S=C(NCc1ccncc1)Nc1ccc(Br)cc1	38	6	7	i	0	4	-9	-23
Cc1ccc(NC(=O)Cc2noc3ccccc23)cc1	-114	-4	-7	nt	-5	5	5	-13
CC(C)c1ccc(NC(=O)CN2C(=O)NC(Cc3c[nH]c4ccccc34)C2=O)cc1 (stereo unspecified)	-5	nt	nt	nt	nt	1	0	4
COC(=O)c1sccc1NC(=O)CSc1cccc(Cl)c1Cl	nt	25	0	i	-6	-6	-8	nt
CC(C)[C@H](NC(N)=O)C(=O)Nc1cccc(S(=O)(=O)NC2=NCCCCC2)c1	2	nt	nt	nt	nt	5	4	-13
CC(=O)Oc1ccc(C(=O)Nc2cccc(C(=O)c3cccc(NC(=O)c4ccc(OC(C)=O)cc4)c3)c2)cc1	22	27	2	i	-23	1	-4	nt
CCc1ccccc1NC(=O)c1sc2nc(C)cc(C)c2c1N	-16	4	-2	i	-10	-2	-4	1

High-throughput results as filed in PubChem.
